# Bioassay records deposited in PubChem by several laboratories.
# Mtb betalactam: beta-lactam sensitization of Mtb H37Rv | M. tuberculosis H37Rv growth with meropenem, percent inhibition; hits of this screen are not shown here | inhibition, % at 25 µM | 330,000 compounds, 0.27% hits | AID 434955;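 active means about 74% or more and at least 40 points above the plate without the antibiotic, then above 30% in a dose series; inconclusive means first-round hits that could not be retested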;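 further: growth measured after seven days incubation then overnight dye step; 0% = bacteria only wells and 100% = bacteria with antibiotic; twin plates without the antibiotic show which effects depend on it; some results filed as inactive read as strong as hits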
# Arbovirus anti: antivirals against arbovirus infection | 200,000 compounds, 0.37% hits | arbovirus infection cell-based antiviral screen | inhibition, % at 10 µM;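 active means inhibition from about 30%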;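 further: bluetongue infection of BSR cells; cell survival read as ATP light after 72 h; 0% = infected wells without compound and 100% = uninfected wells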
# Mtb growth: M. tuberculosis H37Rv growth inhibitors, H37Rv strain (AID 1626); 220,000 compounds, 0.95% hits; inhibition, % at 10 µM; hits with a dose series show IC50 in µM; M. tuberculosis H37Rv growth inhibition; higher % means a stronger effect;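 active means confirmed in a dose series; inconclusive means inhibition above 80% but not taken into the dose series; inactive means below 80% or under 30% at every dose of the series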;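 further: bacteria incubated seven days before Alamar blue readout; 0% = bacteria only wells and 100% = bacteria with antibiotic wells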
# YopH PTP inh: YopH (Yersinia) phosphatase inhibition; AID 898; 140,000 compounds, 0.16% hits; fluorescence Ex485/Em525; inhibition, %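 (about 10 µM by stock and volumes)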;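 active means inhibition of 50% or more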;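 further: controls were vehicle for no effect and minimum signal wells for full effect; inactives centre near -20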
# RecA splice inh: blocks M. tuberculosis RecA intein splicing. 290,000 compounds, 0.75% hits. AID 2221. cell-free RecA intein splicing, fluorescence. inhibition, %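 (about 9 µM by stock and volumes)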. P9WHJ3; in the data active means inhibition above about 30%; inconclusive means no clear call, values can overlap the other calls;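 further: 0% = vehicle wells and 100% = reference inhibitor control wells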
# Target sequence (P9WHJ3 whole entry, looked up, canonical isoform): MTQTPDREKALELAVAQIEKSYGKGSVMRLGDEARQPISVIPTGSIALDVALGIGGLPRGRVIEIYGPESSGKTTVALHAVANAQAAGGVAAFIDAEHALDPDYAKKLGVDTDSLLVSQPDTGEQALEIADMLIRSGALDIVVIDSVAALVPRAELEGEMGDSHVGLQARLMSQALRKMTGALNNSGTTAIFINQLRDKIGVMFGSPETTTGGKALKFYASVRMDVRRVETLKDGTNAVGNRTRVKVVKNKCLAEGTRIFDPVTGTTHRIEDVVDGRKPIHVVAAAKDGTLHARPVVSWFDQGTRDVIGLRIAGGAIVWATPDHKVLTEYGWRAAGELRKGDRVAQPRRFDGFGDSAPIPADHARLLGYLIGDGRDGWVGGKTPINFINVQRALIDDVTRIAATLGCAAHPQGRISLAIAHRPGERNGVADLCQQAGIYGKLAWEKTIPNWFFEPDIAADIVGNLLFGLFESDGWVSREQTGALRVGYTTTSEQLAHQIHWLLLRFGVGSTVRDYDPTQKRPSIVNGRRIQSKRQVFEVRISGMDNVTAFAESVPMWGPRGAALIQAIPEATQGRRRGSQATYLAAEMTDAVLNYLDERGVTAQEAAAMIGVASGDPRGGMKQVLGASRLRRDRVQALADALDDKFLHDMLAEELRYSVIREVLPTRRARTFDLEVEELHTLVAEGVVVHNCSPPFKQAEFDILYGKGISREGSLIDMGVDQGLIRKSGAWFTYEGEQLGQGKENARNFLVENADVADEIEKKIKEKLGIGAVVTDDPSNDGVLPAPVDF
# Arbovirus anti repeat: recorded beside Arbovirus anti, whose call it bears; inhibition, %; measured here: 10K subset replicate screen; many hits read low in the repeat;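 first of two repeat runs on a subset; 0% = infected and 100% = uninfected wells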
# * hit, by the source's call; ? = inconclusive; / = no result given. Not all compounds are listed; rates above refer to the full screens.
SMILES,Mtb betalactam,Arbovirus anti,Mtb growth,YopH PTP inh,RecA splice inh,others
C/C(=N\NC(=O)c1ccn(C)n1)c1cccc(NC(=O)c2ccncc2)c1,-4.0,-4.4,-9.5%,-21.5,-0.7,
Cc1ccc(N2C(=O)N(CC(=O)Nc3ccc(C)cc3Cl)C(=O)C2C)cc1 (stereo not given),-2.9,/,/,/,0.8,
Cc1occc1C(=O)NNC(=O)C1CCCC1,-6.7,1.1,0.2%,/,0.9,
CCC(=O)c1ccc(OCC(=O)OCC(=O)N2CCCc3ccccc32)cc1,2.3,/,/,/,1.8,
Cc1cc(C)c(NC(=O)CN2CCOCCOCCOCCOCC2)c(C)c1,-13.9,-2.1,-6.2%,-22.2,-6.8,
COc1cc(OC)cc(C(=O)Nc2ccc(C(=O)NCC3CCCO3)cc2)c1 (stereo not given),-1.9,/,/,/,-2.1,
Cc1csc(NC(=O)c2ccc(N3CCCC3=O)cc2)n1,-0.9,2.0,-0.8%,/,0.5,
Cn1c(SCC(N)=O)nnc1-c1ccc(S(=O)(=O)N2CCCC2)cc1,3.3,/,/,/,-0.9,
CC1CCN(C(=O)N[C@@H](Cc2ccccc2)C(=O)O)CC1,3.8,-0.9,-9.3%,-13.1,3.3,
COc1ccc(C(CCN)c2ccc3c(c2)OCO3)cc1 (stereo not given),-0.7,/,/,/,-2.2,

# Random excerpt: four records from the list, in no set order.
SMILES,Mtb betalactam,Arbovirus anti,Mtb growth,YopH PTP inh,RecA splice inh,others
COc1cc(OC)cc(C(=O)Nc2ccc(C(=O)NCC3CCCO3)cc2)c1 (stereo not given),-1.9,/,/,/,-2.1,
CCC(=O)c1ccc(OCC(=O)OCC(=O)N2CCCc3ccccc32)cc1,2.3,/,/,/,1.8,
Cc1cc(C)c(NC(=O)CN2CCOCCOCCOCCOCC2)c(C)c1,-13.9,-2.1,-6.2%,-22.2,-6.8,
Cc1occc1C(=O)NNC(=O)C1CCCC1,-6.7,1.1,0.2%,/,0.9,

# (list continues)
SMILES,Mtb betalactam,Arbovirus anti,Mtb growth,YopH PTP inh,RecA splice inh,others
CN(C)P1(N(C)C)=Nc2c(c(N)nn2C)C(c2ccccc2)=N1,11.3,9.5,-5.0%,-30.3,-1.3,
CC(=O)NC1(NC(C)=O)CCN(C)CC1,-6.1,1.7,-0.7%,/,-0.5,
COC(=O)c1ccc(CO/N=C2\CCCc3nonc32)cc1,-1.1,5.2,9.9%,/,3.0,
CCC(C)(C)n1nnnc1C(C(C)C)N(CCCO)Cc1cc2cc(C)ccc2[nH]c1=O (stereo not given),4.7,10.2,-1.1%,-39.3,-3.7,
C1=C(c2c[nH]c3ccccc23)CCNC1,99.5,7.6,5.9%,40.5,-4.2,
O=C(C1CCC(CNS(=O)(=O)c2cccs2)CC1)N1CCN(c2ccc(F)cc2)CC1 (stereo not given),-2.3,/,/,/,-1.5,
Fc1ccc(N/N=C/c2ccncc2)c(F)c1,94.6,-37.7,?,-12.9,-0.6,
N#Cc1ccccc1CSc1ccccn1,5.8,-2.5,-3.6%,-4.3,-0.5,
N#Cc1ccc(OCC(=O)OCC(=O)Nc2cc(C(F)(F)F)ccc2N2CCOCC2)cc1,0.1,-2.0,2.7%,-25.9,2.8,
Cc1ccc(S(=O)(=O)NCCNC(=O)c2cc(OCC(F)(F)F)ccc2OCC(F)(F)F)cc1,-8.7,-6.0,-14.3%,-7.2,/,

# Of the compounds above, these have two or more sulfur atoms.
SMILES,Mtb betalactam,Arbovirus anti,Mtb growth,YopH PTP inh,RecA splice inh,others
Cn1c(SCC(N)=O)nnc1-c1ccc(S(=O)(=O)N2CCCC2)cc1,3.3,/,/,/,-0.9,
O=C(C1CCC(CNS(=O)(=O)c2cccs2)CC1)N1CCN(c2ccc(F)cc2)CC1 (stereo not given),-2.3,/,/,/,-1.5,

# Remaining list, next part.
SMILES,Mtb betalactam,Arbovirus anti,Mtb growth,YopH PTP inh,RecA splice inh,others
COc1ccc(/C=C/C(=O)NC(=S)NNC(=O)c2cnccn2)cc1,5.2,/,-6.0%,/,21.8,
O=C(CNC(=O)c1ccc(Cl)cc1)c1ccc(Br)cc1,86.4,/,/,/,1.3,
COc1cccc(NC(=S)N2CCN(C)CC2)c1,1.9,/,/,/,-7.1,
CCCNc1c(NS(=O)(=O)c2ccc(C)cc2C)c(=O)oc2ccccc12,0.5,/,/,/,1.2,
CCOC(=O)CNS(=O)(=O)c1ccc2c3c(cccc13)C(=O)N2CC,-8.6,6.3,6.7%,/,-308.5,
CC(=O)CSc1cc(-c2ccccc2)nc2ncnn12,0.3,/,-8.2%,/,6.1,
Cc1ccc(C(=O)Oc2oc(-c3ccccc3)nc2C=Nc2ccc(N(C)C)cc2)cc1,37.5,11.4,92.2%,-10.4,-5.3,
CCn1c(COc2cccc(OC)c2)nnc1SCC(=O)N1CCOCC1,0.5,6.5,-4.1%,-47.2,1.0,
O=C(Nc1cc(Cl)cc(Cl)c1)C1CCCC1,8.9,/,/,/,3.3,
COc1ccccc1CCNC(=O)C1CCCO1 (stereo not given),-1.9,3.6,-1.6%,-22.1,2.1,
Cc1[nH]n(-c2ccccc2)c(=S)c1C=NCCCN=Cc1c(C)[nH]n(-c2ccccc2)c1=S,96.5,0.8,<0.391µM*,2.8,2.6,
CC(C)(C)c1ccc(OCC(=O)N/N=C/c2ccc(N3CCOCC3)cc2)cc1,5.0,-12.4,2.5%,-38.8,-1.5,
COc1cc(CN2CCC(n3nccc3NC(=O)CCCc3ccccc3)CC2)ccc1F,-2.0,/,/,/,2.3,
CC(=O)c1cc(CN2CCC(N3CCC(C(=O)N4CCCC4)CC3)CC2)cs1,23.6,7.2,4.6%,/,-0.9,
Cc1nnc(NC(=O)c2ccc3ccccc3c2)o1,95.2,-12.5,0.719µM*,-54.4,/,
O=S(=O)(c1ccc(Cl)cc1)N1CCN(C2CCN(Cc3ccccc3)CC2)CC1,4.4,-7.2,-0.1%,-7.3,/,
Cc1ccc(S(=O)(=O)N2CCCC2C(=O)OCc2nc3ccccc3s2)cc1 (stereo not given),10.4,-3.7,0.1%,-1.2,2.7,
Cc1ccc(OCc2cc(C(=O)NC3CCCCC3)no2)cn1,-4.4,/,/,/,3.0,
CCOC(=O)c1nn(-c2ccccc2)c2nnc(Cc3ccc(C)cc3)c(=O)n12,-1.8,6.6,2.2%,-21.4,10.7,
CCc1ccc(N(C(=O)c2snc(C(N)=O)c2N)C(C(=O)NC2CCCC2)c2ccncc2)cc1 (stereo not given),5.6,/,/,/,0.6,
O=C(NCCS(=O)(=O)N1CCN(c2cccc(Cl)c2)CC1)C1CCCC1,-6.3,/,/,/,-1.5,
OC(CN1CCN(c2ccc(C(F)(F)F)cn2)CC1)c1ccccc1 (stereo not given),10.5,/,/,/,1.9,
C#CCOCCOCCOCCNc1nc(N2CCN(C(=O)[C@H](CCCCN)n3cc([C@@H](N)C(C)CC)nn3)CC2)nc(N2CCN(C(=O)[C@H](Cc3ccc(O)cc3)n3cc([C@@H](N)CC(C)C)nn3)CC2)n1 (stereo not given in full),89.6,-3.7,-1.8%,/,-1.9,
CCN1CCc2c(sc(NC(=S)NC(=O)c3ccccc3)c2C#N)C1,-13.4,-0.5,4.2%,-25.6,-0.8,
CNC(=S)NNC(=O)c1cc(-c2cccnc2)nc2ccccc12,0.8,/,/,/,-1.9,
CCC(C)[C@H](NC(=O)[C@@H]1Cc2ccccc2CN1)C(=O)Nc1ccc2c(c1)OCO2 (stereo not given in full),-2.2,/,/,/,4.1,
COc1ccc(CCNS(=O)(=O)c2ccc(Br)cc2)cc1,2.6,/,/,/,-0.5,
Cc1cc2nc(-c3ccccc3)cc(=O)n2[nH]1,-3.2,/,5.7%,/,-1.0,
COc1ccc(CN2C(=O)c3cccnc3C2=O)cc1S(=O)(=O)N1CCOc2ccc(Cl)cc21,?,/,/,/,1.1,
CCOc1c(CNCCCSc2nc(C)cc(C)n2)cccc1OC,-7.2,/,/,/,-0.3,
O=C(O)c1ccc(N2C(=O)CC(N3C(=O)/C(=C/c4ccc(Cl)cc4)SC3=S)C2=O)cc1 (stereo not given),-12.6,/,-10.1%,/,6.0,
Cc1sc(NC(=O)CN2CCCC2)nc1-c1ccc2c(c1)CCN2C(=O)c1ccc(F)cc1,0.0,/,/,/,8.7,
NC(=O)C1(N2CCCCC2)CCN(C(=O)c2cccs2)CC1,-5.1,7.0,-0.4%,-29.4,-1.3,Arbovirus anti repeat=2.8
CN(C)S(=O)(=O)Nc1cccc(-c2cn3c(n2)SCC3)c1,4.9,/,/,/,0.0,
Cc1ccc(C)c(OCC(O)CN2CCC(C)CC2)c1C (stereo not given),-3.9,2.2,-1.9%,-45.2,/,
COc1ccc(CCNC(=O)c2cccs2)cc1,-2.1,/,/,/,0.1,
Cc1sc2nc(C3CC3)nc(SCC(=O)N3CC(=O)Nc4ccccc43)c2c1C,12.8,-9.0,-0.6%,5.8,1.5,
COc1ccc(-c2noc(CCCC(=O)NC3CCCCC3)n2)cc1,0.9,/,/,/,-1.5,
Cc1cc(C=O)c(C)n1CC1CCCO1 (stereo not given),-3.1,-4.8,8.1%,5.5,-2.1,
CCSc1nc(-c2ccc(OC)cc2)ccc1C#N,79.9,0.3,6.4%,9.2,3.1,

# Among those listed so far, these contain an aryl thioether with sulfur outside any ring:
SMILES,Mtb betalactam,Arbovirus anti,Mtb growth,YopH PTP inh,RecA splice inh,others
Cn1c(SCC(N)=O)nnc1-c1ccc(S(=O)(=O)N2CCCC2)cc1,3.3,/,/,/,-0.9,
N#Cc1ccccc1CSc1ccccn1,5.8,-2.5,-3.6%,-4.3,-0.5,
CC(=O)CSc1cc(-c2ccccc2)nc2ncnn12,0.3,/,-8.2%,/,6.1,
CCn1c(COc2cccc(OC)c2)nnc1SCC(=O)N1CCOCC1,0.5,6.5,-4.1%,-47.2,1.0,
CCOc1c(CNCCCSc2nc(C)cc(C)n2)cccc1OC,-7.2,/,/,/,-0.3,
Cc1sc2nc(C3CC3)nc(SCC(=O)N3CC(=O)Nc4ccccc43)c2c1C,12.8,-9.0,-0.6%,5.8,1.5,
CCSc1nc(-c2ccc(OC)cc2)ccc1C#N,79.9,0.3,6.4%,9.2,3.1,

# The listing continues.
SMILES,Mtb betalactam,Arbovirus anti,Mtb growth,YopH PTP inh,RecA splice inh,others
O=C(CSc1nnc(NC(=O)C2CC2)s1)Nc1cccc(F)c1,8.4,/,/,/,-0.5,
CCCCNc1ccc(C(CC(N)=O)NC(=O)Cc2ccc(Br)cc2)cc1[N+](=O)[O-] (stereo not given),-10.5,/,-10.6%,/,-3.8,
Cc1ccc(NC(=O)CN(C)C(=O)c2ccccc2Sc2ccccc2C#N)cc1,-3.2,/,/,/,2.5,
Cc1cc(C)c(C#N)c(N2CCN(c3ccc(F)cc3)CC2)n1,2.7,/,/,/,9.6,
COc1ccc([C@H]2C=C(C(=O)O)O[C@@H](OCCCCO)C2)cc1,-0.9,/,0.4%,/,1.4,
O=C(CSc1nc2ccncc2[nH]1)Nc1ccccc1C(F)(F)F,-15.2,-1.3,1.4%,-12.6,-1.3,
Cc1cccc(C(=O)Nc2onc(C)c2C#N)c1,-7.6,4.1,-1.2%,-40.6,-4.2,
Cn1c(=O)n(C)c2cc(NC(=O)C(F)(F)F)ccc21,-12.6,-1.6,5.9%,32.1,-1.5,
COc1ccc(Cn2c(CCC(=O)NCCC(C)C)nc3ncccc3c2=O)cc1,-0.8,/,/,/,-1.1,
Cc1ccc(S(=O)(=O)N(CC(=O)N/N=C/c2cccc(Cl)c2)c2cccc3cccnc23)cc1,1.1,-7.2,/,-5.9,0.8,
O=C(C1CC(=O)N(C2CCCCC2)C1)N1CCN(c2ccccc2)CC1 (stereo not given),0.4,/,/,/,19.8,
CN(C)c1ccc(-c2nn3c(-c4ccc(Cl)cc4)nnc3s2)cc1,/,-5.5,-10.3%,-28.1,2.9,
